gsp ag = gsp mutant agonism | gsp mutant cells, cAMP HTRF, 30 min; control for the full effect not named in the record | 340,000 tested, 0.13% active | Potency, µM (doses to about 76.9 µM), without a hit: at the highest dose activation (cAMP increase), usual class: activators; active = well fitted activation curve with a large enough effect; inconclusive = small, poorly fitted or top-dose-only effect, or another doubt; inactive = no such curve, though single readings can be large or run the other way; cell line not stated here;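 further: phosphodiesterase inhibitor Ro 20-1724 added with compounds to block cAMP breakdown; potency means the concentration at half of the fitted maximal effect; nearly all actives have a fitted effect of over 60% in size; about a fifth of the inactives were tested at one dose only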
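Cells stably selected in G418 were plated at 2000/well, grown 16-24 hr, then given compounds in DMSO with the PDE inhibitor […] (300 uM solution added) for 30 min at 37C; cAMP was read by HTRF.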
Menin-MLL FL inh = displaces fluorescein MLL peptide from human menin; Fluorescence polarization, fluorescein-MLL peptide displacement from menin; FP activity change, % at 61.4 µM; 290,000 tested, under 10 active; AID 1766; inconclusive = falling polarisation curve, or a change in total fluorescence; inactive = total fluorescence flat and polarisation flat or rising; no compound was filed as active; the % refers to the polarisation; negative = inhibition;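 further: % of control where 0% means no effect; inhibitors lower the polarisation; unlabelled MLL peptide was the positive control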
ClpP mod = qHTS Assay for Activators of ClpP | ATP-dependent Clp protease proteolytic subunit (Bacillus subtilis (strain 168)), P80244 | purified B. subtilis ClpP, FRET peptide cleavage, 20 min | Potency, µM (top dose mostly 57.5 µM), for inactives: at the top dose activity change, negative = active | 340,000 tested, 1.9% active; active = well fitted falling curve with a large enough effect; inconclusive = small, poorly fitted or top-dose-only effect; inactive = no such curve, though single readings can be large or run the other way; further: potency means the concentration at half of the fitted maximal effect; the source files actives as falling curves though it sought activators and does not explain the sign; nearly all actives have a fitted effect of over 65% in size; many hits overshoot -100%
Target sequence (P80244 whole entry, looked up): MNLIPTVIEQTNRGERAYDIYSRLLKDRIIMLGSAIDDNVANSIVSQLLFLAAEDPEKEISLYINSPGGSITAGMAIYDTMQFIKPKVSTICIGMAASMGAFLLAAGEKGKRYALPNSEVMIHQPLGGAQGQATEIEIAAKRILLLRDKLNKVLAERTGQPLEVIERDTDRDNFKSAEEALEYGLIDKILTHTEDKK
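Buffer: 100 mM Tris/HCl pH8, 100 mM KCl, 0.05% low protease BSA, 2.5% glycerol, 0.01% Tween-20. ClpP 10 microg/mL final; 20 min RT; delta FRET normalized to ADEP and DMSO controls.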
gsp antag = gsp mutant antagonism; gsp-mutant cells, cAMP HTRF, 30 min; control for the full effect not named in the record; Potency, µM (top dose mostly 76.9 µM), inactives show at the top dose activity change, negative = inhibition, most hits filed as inhibitors; 340,000 tested, 0.4% active; AID 624288; active = falling curve of any shape with a large fitted effect; inconclusive = falling curve, mostly with a smaller effect; inactive = flat or rising curve; cell line not stated here;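 further: intracellular cAMP measured with PDE inhibitor Ro 20-1724 present during compound exposure; potency means the concentration at half of the fitted maximal effect; on the % scale 0 is the no-effect control and ±100 the full control effect; nearly all actives have a fitted effect of over 65% in size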
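HTRF cAMP measurement after 30 min RT detection following 30 min, 37C compound treatment alongside […] (added as 300 uM solution) in G418-selected cells seeded at 2000/well and grown 16–24 h.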
Sfp inh = Sfp phosphopantetheinyl transferase inhibition; Q9F4F7; Biochemical Sfp PPTase activity, qHTS; 310,000 tested, 3.5% active; Potency, µM, without a hit: max response, negative = inhibition, most hits filed as inhibitors; active means well fitted inhibition curve with a large enough effect; inconclusive means small, poorly fitted or top-dose-only effect, or another doubt; inactive means no such curve, though single readings can be large or run the other way;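 further: the enzyme is Sfp with the accession as filed and its product quenches rhodamine fluorescence; potency means the concentration at half of the fitted maximal effect; 0% = enzyme reaction without inhibitor and -100% = no enzyme wells; top concentration of the series not given in the record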
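Sfp 15 nM + cpd, 15 min RT; start w/ rhodamine-CoA 5 uM, BHQ-2-YbbR 12.5 uM (final); 50 mM Hepes pH 7.6, 10 mM MgCl2, 0.01% NP-40, 0.01% BSA; read 525/598 nm at 0 and 30 min.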
D2 PAM = positive allosteric modulators of human D2 dopamine receptor; P14416; DiscoveRx D2 beta-arrestin cells, luminescence, 90 min; 100% = 57 uM dopamine signal; potentiation, % (no concentration beside the values); 360,000 tested, 0.23% active; AID 624464; active = potentiation of 50% or more; inconclusive = 30% to 50%; inactive = 30% or less;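 further: compound concentration not given in the record; tested on top of an EC20 dose of dopamine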
Target sequence (P14416 whole entry, looked up): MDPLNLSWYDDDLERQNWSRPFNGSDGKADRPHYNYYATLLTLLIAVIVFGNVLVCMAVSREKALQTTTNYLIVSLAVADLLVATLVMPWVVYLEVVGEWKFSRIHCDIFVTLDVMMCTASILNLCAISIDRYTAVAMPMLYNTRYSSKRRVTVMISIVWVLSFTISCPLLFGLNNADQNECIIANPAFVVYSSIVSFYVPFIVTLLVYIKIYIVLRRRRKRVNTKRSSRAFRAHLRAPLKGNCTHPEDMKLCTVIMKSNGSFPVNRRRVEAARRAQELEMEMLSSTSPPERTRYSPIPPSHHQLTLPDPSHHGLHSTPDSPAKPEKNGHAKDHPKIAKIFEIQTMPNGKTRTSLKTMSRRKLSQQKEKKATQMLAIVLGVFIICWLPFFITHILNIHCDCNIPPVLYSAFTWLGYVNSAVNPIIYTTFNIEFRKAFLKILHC
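PathHunter D2 cells, attached overnight at 37 deg C, received compound in DMSO plus dopamine at EC20 (50 nM final) for 90 min at 37 deg C. Beta-arrestin recruitment was read as luminescence after 1 h with detection reagent at ambient temperature.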
TRPV1 PAM = human TRPV1 potentiation; AID 540277; potentiation, % at 8.33 µM; TRPV1-expressing cells, Fluo-8 calcium influx, capsaicin EC20 potentiation; host cell line not named in the record; control for the full effect not named in the record; Q8NER1; 320,000 tested, 0.02% active; active means potentiation above 80%; inconclusive means 30% to 80%; inactive means below 30%; further: 0% is about no effect
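TRPV1-expressing cells were cultured overnight at 35.5C and loaded with Fluo-8 calcium dye for 40 to 90 min at room temperature. After a 10 s baseline, compound was added and calcium influx was read kinetically for 3 min (ex 480/em 520 nm).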
* hit, by the source's call; ? = inconclusive; . = no result given; & = joins results of further samples; [ ] = dose if it differs, or a comment.

item	Molecule	gsp ag	Menin-MLL FL inh	ClpP mod	gsp antag	Sfp inh	D2 PAM	TRPV1 PAM
1	Cc1cccc(/C=N/NC(=O)c2ccc(NC(=O)c3ccccc3Cl)cc2)n1	1%	-1.6	.	9%	0%	-1	-11
2	CCc1ccc(S(=O)(=O)/N=C2\C=C(Nc3cccc(C(=O)O)c3)C(=O)c3ccccc32)cc1	2%[15.4 µM]	.	.	-6%	-18%	-6	-2
3	COc1ccc(/C(N)=N/OC(=O)CCc2ccccc2)cc1OC	14%	-0.6	-1.9%	4%	-15%	-3	21
4	CC(=O)OCC1=C(C(=O)O)N2C(=O)C(NC(=O)c3ccc(COc4cccc(Cl)c4Cl)o3)C2SC1 (stereo not given)	9%	7.7	0.0%	-7%	-21%	-10	-6
5	Cc1cc(C)cc(N(CC(=O)NC2CCCC2)C(=O)C2(C)CC(=O)N=C3C=CC=CN32)c1 (stereo not given)	0%	0.7	4.6%	7%	23%	-6	4
6	Cc1ccc(-c2csc(NC(=O)c3ccc(C)o3)n2)cc1	2%	-2.7	-25%	-22%	-11%	1	-18
7	O=c1cc(-c2ccc3c(c2)OCO3)oc2ccccc12	-35%[inhibitor]	3.1	?	0%	5%	-1	-23
8	COC(=O)c1ccc(C2c3c(oc4ccccc4c3=O)C(=O)N2CCCN2CCOCC2)cc1 (stereo not given)	-84%[inhibitor]	5.9	-2.1%	2%	25µM*	-2	.

item	Molecule	gsp ag	Menin-MLL FL inh	ClpP mod	gsp antag	Sfp inh	D2 PAM	TRPV1 PAM
9	CCOc1ccc(Cn2nnc(C(=O)NCCc3ccccc3)c2N)cc1	-112%[inhibitor]	3.1	2.2%	-2%	21%	-1	5
10	CC(C)(C)NC(=O)N1CCC(CO)(Cc2ccccc2Cl)CC1	-18%[15.4 µM]	-2.4	.	13%	13%	7	-11
11	Cc1ccccc1NC(=O)C1CCN(C(=O)N2CCOc3ccccc32)CC1	-9%	-0.4	-3.1%	1%	7%	-4	-16
12	O=C(COC(=O)c1ccc(N2CCCC2=O)cc1)NCc1ccco1	-56%[inhibitor]	-0.9	1.6%	-4%	-20%	-7	-1
13	N/C(=N\OC(=O)C(c1ccccc1)c1ccccc1)c1ccccn1	0%	1.0	0.2%	-2%	6%	9	-6
14	CCOC(=O)c1c(S(=O)(=O)Nc2cccc(-c3ccno3)c2)c(C)n(C)c1C	24%	4.3	-1.4%	-5%	-2%	-5	-3
15	Cc1c(C(=O)N(Cc2ccco2)Cc2cccs2)oc2ccccc12	2%	.	-0.7%	-22%	.	-24	5
16	Cc1ccc2[nH]c(=O)c3cc(C(=O)NCCN4CCN(C)CC4)sc3c2c1	-4%	-1.6	4.2%	5%	3%	-1	5

Arranged by the number under Sfp inh (highest first): 3 from the list above
no. | compound | gsp ag | Menin-MLL FL inh | Sfp inh | D2 PAM
9 | CCOc1ccc(Cn2nnc(C(=O)NCCc3ccccc3)c2N)cc1 | -112%[inhibitor] | 3.1 | 21% | -1
16 | Cc1ccc2[nH]c(=O)c3cc(C(=O)NCCN4CCN(C)CC4)sc3c2c1 | -4% | -1.6 | 3% | -1
14 | CCOC(=O)c1c(S(=O)(=O)Nc2cccc(-c3ccno3)c2)c(C)n(C)c1C | 24% | 4.3 | -2% | -5

(cont.)
item	Molecule	gsp ag	Menin-MLL FL inh	ClpP mod	gsp antag	Sfp inh	D2 PAM	TRPV1 PAM
17	O=C(N/N=C/c1cccc(OC(=O)c2ccc([N+](=O)[O-])cc2)c1)c1cccnc1	20%[15.4 µM]	.	-2.3%	-3%	10%	-7	1
18	Cc1[nH]n(-c2ncc(-c3ccccc3)s2)c(=O)c1C(c1ccc(Cl)cc1)C(C#N)C#N (stereo not given)	-7%	-0.9	2.4%	-7%	?	-17	-2
19	Cc1ccc[n+](CC(=O)Nc2ccc(Cl)c([N+](=O)[O-])c2)c1	17%[15.4 µM]	-3.8	-2.0%	-7%	4%	-37	?
20	COc1cccc(N2CCN(C(=O)C3CCN(S(=O)(=O)c4ccc5c(c4)CC(C)N5C(C)=O)CC3)CC2)c1 (stereo not given)	-68%[inhibitor]	.	-1.2%	?	-4%	-8	3
21	Cc1ccccc1-n1ccnc1SCC(=O)Nc1cccc(S(=O)(=O)NC2=NCCC2)c1	-20%[15.4 µM]	.	1.3%	10%	.	-9	.
22	COCCNC(=O)/C(C#N)=C/c1cc(C)n(-c2ccc(C)cc2)c1C	-4%[15.4 µM]	-0.8	.	-4%	-5%	-17	-16
23	COC/C=C/C1=CC2=CC(=O)C(C)(OC(=O)c3cnc4ccccc4n3)C(=O)C2=CN1CCCOC(C)C (stereo not given)	.	-1.7[11.7 µM]	-0.2%	-8%	5%&-9%	-6	17
24	Cc1cccc([C@@H](NC(=O)OC(C)(C)C)C(=O)OC(C)(C)C)c1	?	.	0.9%	9%	.	-6	-19

item	Molecule	gsp ag	Menin-MLL FL inh	ClpP mod	gsp antag	Sfp inh	D2 PAM	TRPV1 PAM
25	CCOC(=O)N1CCN(C(=O)CSc2nc(=O)n3cc(C)ccc3n2)CC1	103%	.	?	-14%	.	-3	3
26	COc1ccc(CCNC(=O)c2cccc(C(=O)NCCc3ccc(OC)cc3)n2)cc1	-4%[15.4 µM]	.	0.6%	-16%	.	2	.
27	CCN(CC(=O)NCc1cccs1)C(=O)c1ccc(S(=O)(=O)N(CC)c2ccccc2)cc1	-50%[inhibitor]	.	0.3%	-17%	.	2	3
28	Cn1c(CCNC(=O)c2ccc(F)cc2)nc2ccccc21	-16%	-0.7	2.2%	6%	-5%	-16	-8
29	CSC[C@@H]1NC(=S)N(c2ccc(C)cc2)C1=O	?	.	-2.2%	-16%	7%	-7	1
30	COC(=O)c1ccc(CSc2nnnn2C)o1	-2%	-0.6	1.6%	0%	1%	6	2
31	CC(C)C[C@H](NC(=O)c1nc[nH]c1C(=O)NCCNC(=O)OC(C)(C)C)C(=O)CNCCNC(=O)c1[nH]cnc1C(=O)N[C@@H](C)C(=O)OC(C)(C)C	-46%[inhibitor]	.	3.6%	7%	.	-5	.
32	O=C(CCc1ccccc1)N1CCCC(Nc2ccc(F)cc2)C1 (stereo not given)	18%	-0.5	-2.2%	-2%	5%	-7	16

Entries of single compounds as entered above:
Cn1c(CCNC(=O)c2ccc(F)cc2)nc2ccccc21 in the list: gsp ag: -16%; Menin-MLL FL inh: -0.7; ClpP mod: 2.2%; gsp antag: 6%; Sfp inh: -5%; D2 PAM: -16; TRPV1 PAM: -8
CCN(CC(=O)NCc1cccs1)C(=O)c1ccc(S(=O)(=O)N(CC)c2ccccc2)cc1 in the list: gsp ag: -50%[inhibitor]; Menin-MLL FL inh: .; ClpP mod: 0.3%; gsp antag: -17%; Sfp inh: .; D2 PAM: 2; TRPV1 PAM: 3

Further entries follow:
item	Molecule	gsp ag	Menin-MLL FL inh	ClpP mod	gsp antag	Sfp inh	D2 PAM	TRPV1 PAM
33	COc1ccc2c(c1)Sc1ccccc1N2	-1%[15.4 µM]	6.3	.	1%	-4%	?	2
34	CN(C1CCCCC1)S(=O)(=O)c1ccc(NC(=O)Cn2nc(-c3ccc(F)cc3)ccc2=O)cc1	8%	3.7	-24%	-3%	-3%	2	17
35	CCCCN=c1sc(C(=O)OC)cc(=O)n1CCCC	-2%	-0.6	-0.7%	-2%	15%	-10	-15
36	CC1CCCCN1C(=O)CN1C(=O)CSc2ccc(S(=O)(=O)N3CCOCC3)cc21 (stereo not given)	4%	-4.4	-1.7%	-5%	7%	-7	0
37	Cc1cc(C)cc(Nc2ccc3nonc3c2[N+](=O)[O-])c1	-9%[15.4 µM]	.	-1.2%	-3%	.	-1	.
38	CCOc1cc(S(=O)(=O)NCc2ccc3c(c2)OCO3)c(C)cc1C	-58%[inhibitor]	4.4	-1.8%	-15%	0%	-11	-3
39	CC(=O)c1cccc(NC(=O)C(C)OC(=O)c2ccc(Br)o2)c1 (stereo not given)	-35%[inhibitor]	.	2.2%	1%	.	-4	-13
40	Cc1cc(-c2nnc3n2N=C(c2ccc(F)cc2)CS3)n[nH]1	2%[15.4 µM]	0.6	.	-20%	3%	-12	-1

item	Molecule	gsp ag	Menin-MLL FL inh	ClpP mod	gsp antag	Sfp inh	D2 PAM	TRPV1 PAM
41	Cc1ccc2cc(CCNC(=O)c3ccc(S(=O)(=O)N4CCOCC4)cc3)c(=O)[nH]c2c1	?	.	-7.1%	-3%	17%	-5	0
42	O=C(OCC(=O)N1CCCC1)c1cnc(Cl)c(Cl)c1	-70%[inhibitor]	.	.	1%	.	-8	.
43	CCOC(=O)C1CCN(C(=O)c2cccc(S(=O)(=O)N3c4ccccc4CC3C)c2)CC1 (stereo not given)	7%	.	-3.8%	10%	.	-11	-12
44	COc1ccc(NC(=O)CCC(=O)Nc2nnc(CC(C)C)s2)cc1Cl	6%	.	1.7%	0%	8%	-25	26
45	Fc1ccc(Nc2nc(-c3ccncc3)nc3ccccc23)cc1	-1%	-0.8	-0.9%	-4%	3%	-7	6
46	O=C(CSc1cccc[n+]1[O-])NCC1CCCCC1	4%	-2.6	-2.3%	10%	9%	-19	1
47	CC(C)COP(=O)(c1ccc(N(C)C)cc1)C(O)c1ccccc1 (stereo not given)	-6%[15.4 µM]	3.1	.	9%	12%	-3	13
48	CCOC(=O)CSc1snnc1C	26%	.	1.8%	8%	.	-6	.

item	Molecule	gsp ag	Menin-MLL FL inh	ClpP mod	gsp antag	Sfp inh	D2 PAM	TRPV1 PAM
49	CCOC(=O)c1sc(NC(=O)c2cncc(Br)c2)nc1C	.	-1.0	.	.	17%	.	2
50	COc1ccc(N(C(=O)c2ccco2)S(=O)(=O)c2cc(OC)ccc2OC)cc1	-8%	0.2	-0.3%	1%	6%	-19	8
51	COc1ccc(CCNC(=O)C2CC(c3ccccc3F)=NO2)cc1 (stereo not given)	.	0.9	-0.8%	-16%	10%	1	-13
52	O=C(c1ccc2c(=O)n(-c3ccccc3)c(=O)[nH]c2c1)N1CCN(c2ccc(F)cc2)CC1	16%	4.3	-0.9%	-10%	12%	-6	0
53	CCOc1c(Br)cc(CNc2ccc3c(c2)OCCO3)cc1OC	15%	-0.8	2.1%	1%	-6%	-3	9
